Bioassay records as filed in PubChem BioAssay.
Ecoli rRNA inh: inhibitors of bacterial rRNA selective over humanized ribosomes | E. coli WT GFP vs humanized-ribosome RFP mutants, fluorescence, 24 h; hits give low values; DMSO median 0, no signal -100 | GFP signal change (wild-type ribosome), % (test concentration not listed) | 1.6% of 350,000 active;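 active = significant combined selectivity score with lowered wild-type GFP, culture density cut under 30%, mutant RFP and density less affected; inactive = any of these conditions unmet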; note: one replicate is shown; some compounds called inactive have numbers as strong as hits
Bfl-1 A1 inh: inhibitors of the anti-apoptotic protein A1, read as caspase activation. caspase activation, % (concentration not given with the values). MEF A1-2A-BIM cells, Caspase-Glo 3/7 luminescence, 3 h; percent of clofoctol response, vehicle zero. 0.066% of 330,000 active;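 active = over half of replicate activation scores above 10%, or exactly half above 10 with the replicate mean above 10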;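 note: wells of about 30 µL received 50 nL stock; many hits fall short of the cut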
Beta cell apopt: beta cell apoptosis inhibition | AID 435005 | INS-1E cytokine-induced death, ATP luminescence, 48 h; percent of positive-control rescue, neutral wells zero | protection from apoptosis, % (concentration not given with the values) | 0.8% of 300,000 active;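 active = all replicates at 75% or more, or half of them and the mean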;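 note: 0% = cytokine-treated negative control wells and 100% = positive control rescue; higher means more ATP so stronger rescue from cytokine killing; wells of about 40 µL received 100 nL stock; the first replicate is given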
T cruzi inh: T. cruzi replication inhibition; T. cruzi beta-gal in NIH3T3, luminescence, 90 h; inhibition, % (concentration not given with the values); 1.4% of 300,000 active; AID 1885;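 active = mean inhibition across valid replicates above about 55%, limit read from the data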;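 note: signal also drops with host cell toxicity which is not excluded here; 0% = plate median of DMSO wells and 100% = zero luminescence signal; higher percent means less beta-gal luminescence so fewer parasites; stock transfer was 50 nL into about 50 µL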
UCH37 inh: inhibitors of human deubiquitinating enzyme UCH37; Q9Y5K5; purified proteasome/UCH37, Ub-AMC cleavage fluorescence; inhibition, % (test concentration not listed); 0.33% of 330,000 active; AID 588478;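 active = mean of two replicates above 20%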;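 note: 0% = compound-free wells with enzyme and 100% = wells lacking proteasome; stock transfer was 100 nL into about 20 µL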
Target sequence (Q9Y5K5 whole entry, looked up): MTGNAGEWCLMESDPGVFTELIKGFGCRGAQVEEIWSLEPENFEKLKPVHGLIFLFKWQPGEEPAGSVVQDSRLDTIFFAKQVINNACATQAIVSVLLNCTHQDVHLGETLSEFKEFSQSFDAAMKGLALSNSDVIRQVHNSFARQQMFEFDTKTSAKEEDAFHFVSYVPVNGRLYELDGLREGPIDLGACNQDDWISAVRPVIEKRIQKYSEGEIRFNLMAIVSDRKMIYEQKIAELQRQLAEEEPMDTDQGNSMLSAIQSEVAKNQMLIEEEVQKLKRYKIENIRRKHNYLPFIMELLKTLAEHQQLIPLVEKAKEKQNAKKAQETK
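Material: human UCH37 enzyme supplied as purified proteasome complex. Measure: % inhibition of Ub-AMC cleavage fluorescence. Medium: pH 7.4 Tris-HCl (50 mM) with ovalbumin, ATP-MgCl2, DTT. Times: 30 min preincubation with enzyme, 25 min cleavage at room temperature. Detection: AMC fluorescence intensity at 355/460 nm.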
AF4-AF9 inh: inhibitors of human MLL-AF4/AF9 interaction. 0.47% of 350,000 active. inhibition, % at 10 µM. AID 651704. P42568. AlphaScreen, biotin-AF4 peptide binding to FLAG-AF9;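 active = every replicate reaching a set inhibition limit, whatever the replicate mean, cut at about 25% in these data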;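 note: 0% = plate neutral control median and 100% = total signal loss; the record names both 10 and 1 µM as test concentration; the first replicate is given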
Target sequence (P42568 whole entry, looked up): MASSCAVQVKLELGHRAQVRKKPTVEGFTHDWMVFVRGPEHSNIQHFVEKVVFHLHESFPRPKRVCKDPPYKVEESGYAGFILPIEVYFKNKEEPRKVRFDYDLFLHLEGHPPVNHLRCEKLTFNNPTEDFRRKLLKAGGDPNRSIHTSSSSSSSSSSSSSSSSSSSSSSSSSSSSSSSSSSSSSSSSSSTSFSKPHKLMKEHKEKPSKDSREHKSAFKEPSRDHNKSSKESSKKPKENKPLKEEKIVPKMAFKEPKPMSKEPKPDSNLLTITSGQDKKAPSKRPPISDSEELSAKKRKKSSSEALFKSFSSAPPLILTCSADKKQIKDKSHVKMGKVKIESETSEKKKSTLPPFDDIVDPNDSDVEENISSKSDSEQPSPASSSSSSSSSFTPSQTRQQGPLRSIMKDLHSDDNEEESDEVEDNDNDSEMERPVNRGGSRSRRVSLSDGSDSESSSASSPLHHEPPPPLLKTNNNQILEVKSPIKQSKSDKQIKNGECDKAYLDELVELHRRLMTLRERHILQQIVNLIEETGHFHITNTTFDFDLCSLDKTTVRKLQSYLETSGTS
E coli growth: inhibitors of Escherichia coli growth; OD600, 23 h; hits give low values; OD600 absorbance (test concentration not listed); 0.21% of 330,000 active; AID 1053175;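 active = OD600 absorbance below the run mean of sample wells minus 3.6 SD, in any replicate, cut at about 0.56 in these data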;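 note: stock transfer was 300 nL into about 60 µL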
FGF22 binding: shifts melting point of recombinant human FGF22 | recombinant FGF22 thermal shift, SYPRO orange fluorescence; percent of sucrose octasulfate shift, DMSO zero | 1.5% of 340,000 active | calls only at 9.99 µM | Q9HCT0;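 active = melting point raised past a set limit in the mean and every replicate; three in four hits are not shown here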
Ecoli rRNA inh OD600: second read-out of Ecoli rRNA inh, no call of its own (marks repeat the call); OD600 change, %; measured here: OD600 growth;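 optical density of the mix in the first replicate; 0 = DMSO median and -100 = no signal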
Ecoli rRNA inh RFP: second read-out of Ecoli rRNA inh, no call of its own (marks repeat the call); RFP signal change, %; measured here: RFP humanized mutant strains;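 first replicate; 0 = DMSO median and -100 = no signal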
The depositor's hits bear a star; i = inactive; . = no result given.

SMILES	Ecoli rRNA inh	Ecoli rRNA inh OD600	Ecoli rRNA inh RFP	Bfl-1 A1 inh	Beta cell apopt	T cruzi inh	UCH37 inh	AF4-AF9 inh	E coli growth	FGF22 binding
Cc1ccc(C2(C(F)(F)F)NC(=O)N3CCN=C3S2)cc1 (centres undefined)	.	.	.	0.1	2.7	-13.9	7.5	.	0.708	.
CCCCCCC(=O)Nc1c(O)c2ccccc2[nH]c1=O	.	.	.	-1.0	-3.9	-8.0	5.3	.	0.705	.
CN(c1ccc(OCC(=O)OCC(=O)NCc2ccco2)cc1)S(=O)(=O)c1ccc2ccccc2c1	-4.3	-15.2	2.7	0.1	-8.5	-8.7	6.4	-2.3	0.71	i
CC[C@]12c3[nH]c4ccc(Cl)cc4c3CCN1C(=O)[C@@H](CC(=O)NCCCn1ccnc1)C[C@@H]2C(=O)N1CCN(C(=O)c2ccco2)CC1	9.6	5.0	-0.9	.	.	.	3.4	5.2	0.691	i
CCOc1ccc2[nH]c3c(N4CCN(c5ccccn5)CC4)ncnc3c2c1	.	.	.	0.4	14.4	17.5	-58.8	.	0.656	.
COc1ccc(C)cc1S(=O)(=O)Nc1ccccc1	7.0	2.5	-1.3	0.3	-10.7	1.1	0.5	2.2	0.729	i
Cc1onc(-c2c(Cl)cccc2Cl)c1C(=O)N1CCCc2ccccc21	-19.9	-30.7	0.8	1.4	-0.2	0.7	3.2	-11.3	0.654	i
COc1ccc(-c2cc(C(=O)Nc3ccc(OC)c(OC)c3)no2)cc1	9.6	18.0	4.0	-0.6	-1.0	-11.1	-14.7	-4.5	0.671	i
CCOC(=O)c1ccc(NC(=O)CSc2nnc(CNc3ccc(OC)cc3)n2C)cc1	.	.	.	-0.6	-4.0	6.3	2.2	.	0.696	.
CCNC(=O)C(=O)NCC(c1cccs1)S(=O)(=O)c1ccc(C)cc1 (centres undefined)	3.5	7.8	-1.2	-1.7	0.1	-7.5	2.1	-2.3	0.614	i
N#C/C(=N\Nc1ccc(S(=O)(=O)N2CCc3ccccc32)cc1)C(N)=S	-55.5	-76.9	-12.5	0.5	23.7	11.2	.	9.7	.	.
CCCS(=O)(=O)N1CCCC(C(=O)NCC2CCCO2)C1 (centres undefined)	.	.	.	-0.3	6.4	-11.4	-0.6	.	0.704	.
CCc1cc(C(=O)NCCN(C)C)cs1	9.8	2.5	-7.3	-0.1	3.7	-8.3	-0.2	5.7	0.682	i
CCC(C)(C)C1CCC2(CC1)NC(=O)N(CC(=O)Nc1nc(-c3ccc(C)cc3)cs1)C2=O (centres undefined)	.	.	.	0.5	-1.2	13.3	3.5	.	0.799	.
O=S(=O)(c1cnc[nH]1)N1CCN(c2ccc(Cl)cc2)CC1	-0.8	11.7	-10.6	1.3	-4.6	-2.7	-1.3	6.6	0.647	i
OCCSc1nc(-c2ccccc2)nc2ccc(F)cc12	.	.	.	0.3	0.3	3.1	4.6	-1.3	0.649	i
O=C(CSc1nnc2ccc(-c3ccc(F)cc3)nn12)NCC1CCCO1 (centres undefined)	8.9	5.1	-2.0	0.1	.	-5.7	-28.8	-3.3	0.604	i
C=CCn1c(-c2ccc(Cl)cc2)cnc1SC(C)C(=O)NC(N)=O (centres undefined)	-8.3	-6.6	-0.9	0.0	2.4	12.9	4.5	6.2	0.718	i
COc1ccc(CC(=O)N2CCN(S(=O)(=O)c3cccs3)CC2)cc1OC	-3.1	3.1	-3.7	0.2	-5.1	-7.2	3.4	12.4	0.706	i
Cn1c(-c2ccc(F)cc2)cc2onc(-c3c(F)cccc3Cl)c2c1=O	12.5	2.1	4.3	0.5	-1.6	.	5.1	6.2	0.7	i
COCCCN(C(=O)CSCc1c(C)noc1C)c1c(N)n(Cc2ccccc2)c(=O)[nH]c1=O	8.9	10.0	1.6	-0.3	2.5	-20.8	1.6	0.3	0.651	.
COC(=O)CSc1nnc(-c2ccco2)o1	.	.	.	1.1	.	-3.5	2.9	.	0.691	.
CC(C)OCC(O)CS(=O)Cc1ccccc1 (centres undefined)	.	.	.	0.6	-3.8	-6.2	4.8	.	0.661	.
O=C(Cc1ccccc1)N1CCN(C(=O)c2ccco2)CC1	.	.	.	-0.5	4.2	-27.0	2.0	.	0.732	.

Next part; the last six above are carried over.
SMILES	Ecoli rRNA inh	Ecoli rRNA inh OD600	Ecoli rRNA inh RFP	Bfl-1 A1 inh	Beta cell apopt	T cruzi inh	UCH37 inh	AF4-AF9 inh	E coli growth	FGF22 binding
COc1ccc(CC(=O)N2CCN(S(=O)(=O)c3cccs3)CC2)cc1OC	-3.1	3.1	-3.7	0.2	-5.1	-7.2	3.4	12.4	0.706	i
Cn1c(-c2ccc(F)cc2)cc2onc(-c3c(F)cccc3Cl)c2c1=O	12.5	2.1	4.3	0.5	-1.6	.	5.1	6.2	0.7	i
COCCCN(C(=O)CSCc1c(C)noc1C)c1c(N)n(Cc2ccccc2)c(=O)[nH]c1=O	8.9	10.0	1.6	-0.3	2.5	-20.8	1.6	0.3	0.651	.
COC(=O)CSc1nnc(-c2ccco2)o1	.	.	.	1.1	.	-3.5	2.9	.	0.691	.
CC(C)OCC(O)CS(=O)Cc1ccccc1 (centres undefined)	.	.	.	0.6	-3.8	-6.2	4.8	.	0.661	.
O=C(Cc1ccccc1)N1CCN(C(=O)c2ccco2)CC1	.	.	.	-0.5	4.2	-27.0	2.0	.	0.732	.
Cc1cnc(C(=O)Nc2cccc(S(=O)(=O)N(C)C)c2)cn1	.	.	.	-0.5	-3.3	5.3	1.3	.	0.681	.
COc1ccc(NC(=O)CSc2nc(NS(=O)(=O)c3ccc(C)cc3)cc(=O)[nH]2)cc1	.	.	.	0.0	-3.1	7.9	-0.2	.	0.713	.
O=C(Nc1cccc(F)c1)c1cccnc1N1CCOCC1	3.3	3.2	1.5	0.4	2.8	-3.5	6.3	.	0.69	.
O=C(O)c1ccccc1-c1ccccc1C(=O)Nc1ccccc1Br	-6.4	-5.1	-5.1	1.4	.	2.6	-1.2	-2.4	0.65	i
COc1cc(NC(=O)c2cccs2)cc(OC)c1	.	.	.	0.1	1.6	3.7	-1.3	.	0.746	.
Cn1cccc1C(=O)c1cccc([N+](=O)[O-])c1	3.5	-4.2	-4.7	0.9	2.2	-17.3	1.5	-1.2	0.673	i
CCCC(=O)Nc1cc(C(=O)O)ccc1S(=O)(=O)c1ccc(C)cc1	.	.	.	0.0	-5.0	-35.3	-4.6	.	0.644	.
CC(C)CCNC(=O)c1cc(S(=O)(=O)N2CCCCC2)ccc1N1CCOCC1	0.2	2.8	2.3	0.4	-1.3	14.2	2.3	-26.5	0.665	i
O=C(N/N=C/c1ccc[nH]1)c1cc(-c2cccs2)nc2ccccc12	-24.1*	-18.6*	7.6*	0.8	12.9	-9.4	.	17.8	.	i
COc1ccccc1/C=N/NC(=O)C(=O)Nc1ccccc1OC(F)(F)C(F)F	3.4	9.2	-1.3	-0.9	0.6	-18.1	.	5.9	.	i
COc1ccc(C2Nc3ccccc3C(=O)N2O)cc1OC (centres undefined)	.	.	.	0.0	2.5	-5.9	-0.9	.	0.733	.
O=C(OCc1c(F)cccc1Cl)c1cccc(S(=O)(=O)N2CCOCC2)c1	0.6	-24.6	-1.6	-1.1	2.5	.	1.8	1.3	0.673	i
CCCOc1ccc(N2CC(C(=O)Nc3ccccc3OC)CC2=O)cc1 (centres undefined)	0.0	-1.0	-2.1	-1.1	3.5	0.8	2.1	0.2	0.688	i
Cc1cc(NC(=O)C(C)Oc2ccc(Cl)cc2Cl)n(-c2ccccc2)n1 (centres undefined)	.	.	.	1.1	-1.7	-5.5	0.5	.	0.71	.
Cc1ccc(C(=O)OCC(=O)c2cc(C)n(CC3CCCO3)c2C)cc1 (centres undefined)	1.7	-0.7	3.2	-3.2	-4.9	-11.3	-1.3	3.1	0.728	i
C/C(=N/Nc1ccccc1C(=O)O)c1cccs1	-30.6	-41.2	-16.9	-0.9	2.6	3.6	.	-1.0	.	i
O=C(N(c1ccccc1)c1ccccc1)n1ccnc1	.	.	.	1.0	0.7	28.7	0.8	.	0.726	.
CCOC(=O)C1=C(c2ccccc2)N=C2SCC(=O)N2C1c1ccc(OCC)c(OCC)c1 (centres undefined)	.	.	.	-0.4	-3.4	4.1	3.3	.	0.705	.
Cc1cc(Br)cc(C)c1NC(=O)c1ccccc1[N+](=O)[O-]	.	.	.	0.3	-6.0	8.1	0.0	.	0.672	.
CC1=C(C(=O)N2CCOCC2)C(c2cc(C)cs2)NC(=O)N1 (centres undefined)	.	.	.	0.8	-2.4	10.2	-0.3	.	0.675	.
O=C(C1CC1)N1CCN(c2nc3ccccc3s2)CC1	.	.	.	-0.6	-1.1	9.0	-0.1	.	0.691	.
COCCCNS(=O)(=O)c1ccc2c3c(cccc13)C(=O)S2	.	.	.	0.1	9.8	-0.9	-2.7	.	0.72	.
COc1cccc(N2CCN(C(=O)CNC(=O)c3sc4ccccc4c3Cl)CC2)c1	1.5	7.9	-2.5	0.6	2.3	18.9	1.5	0.7	0.656	i
Cc1ccc(C(=O)OCC(=O)NC(=O)Cc2ccccc2)c(O)c1	-1.7	1.4	-2.6	-0.8	-4.5	-9.1	1.4	-1.5	0.676	i
O=c1oc2ccccc2c(N2CCCCC2)c1[N+](=O)[O-]	11.4	-0.4	0.5	-0.1	-4.4	-15.2	6.1	17.8	0.614	i
CCOC(=O)C1(CC2CCCCO2)CCN(Cc2ccc(OC)cc2F)CC1 (centres undefined)	-18.8	-18.4	-2.6	-0.4	0.1	-6.6	2.0	0.9	0.641	i
COc1ccc2[nH]c3c(=O)n(CCCCCC(=O)NCCC(C)C)c(=S)[nH]c3c2c1	7.0	23.0	4.7	-0.9	-4.8	-7.2	5.2	-4.0	0.653	i
CC1O[C@@H](OC2C(O)C(O)C(CO)O[C@H]2OC2C[C@]3(C)C(CC(O)C4[C@@H]([C@]5(C)CC[C@@H](C(C)(C)O)O5)CC[C@]43C)[C@@]3(C)CCC(O)C(C)(C)C23)C(O)C(O)C1O (some centres undefined)	2.5	6.4	-0.4	2.0	-1.1	.	1.6	0.0	.	i
Cc1[nH]n(-c2ccccc2)c(=O)c1C(c1ccc(O)c([N+](=O)[O-])c1)c1c(C)[nH]n(-c2ccccc2)c1=O	.	.	.	-0.8	-5.5	5.8	7.4	.	0.691	.

Not all compounds are listed, so the mix of outcomes need not match the whole.
